Bioassay records from PubChem.
ALR inh: inhibitors of human sulfhydryl oxidase ALR; P55789; purified ALR, DTT oxidation, H2O2 HRP-luminol luminescence; inhibition, % (test concentration not listed); 290,000 tested, 3.8% active; AID 485317;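 active means mean and each replicate at 75% or more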;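 further: stock transfer was 7.5 nL into about 7.5 µL; 0% = neutral wells and 100% = wells with inactivated enzyme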
HNF4A DNA FP: change in binding of human HNF4 alpha to DNA. HNF4a-FITC DNA binding, fluorescence polarization, 1 h. activity change, % at 10 µM. 360,000 tested, 0.3% active; in the data active means activity change above about 30%, passing the limit was not always enough;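 further: controls were the assay level and a saturating level of protein; the project sought stronger binding though the title names inhibitors; some compounds called inactive have numbers as strong as hits; positive values seem to mean higher polarization but the record does not say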
Target sequence (P41235 whole entry, looked up): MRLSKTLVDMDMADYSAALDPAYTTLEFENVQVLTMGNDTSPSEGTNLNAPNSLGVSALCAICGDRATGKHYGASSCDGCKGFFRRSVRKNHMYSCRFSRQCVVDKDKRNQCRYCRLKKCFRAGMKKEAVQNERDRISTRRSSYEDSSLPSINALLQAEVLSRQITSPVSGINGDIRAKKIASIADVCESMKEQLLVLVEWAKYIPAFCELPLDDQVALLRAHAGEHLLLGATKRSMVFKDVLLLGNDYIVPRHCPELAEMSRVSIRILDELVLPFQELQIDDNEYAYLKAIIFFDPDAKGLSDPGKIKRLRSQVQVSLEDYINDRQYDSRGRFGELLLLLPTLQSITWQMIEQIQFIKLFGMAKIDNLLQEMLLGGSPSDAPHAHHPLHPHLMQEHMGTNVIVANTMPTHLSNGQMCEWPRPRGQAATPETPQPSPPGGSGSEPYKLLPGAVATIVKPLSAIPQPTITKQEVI
LANA-H2B inh: blocks KSHV LANA binding to histone H2A/H2B; Q9QR71; cell-free LANA-H2A/H2B peptide, fluorescence polarization; inhibition, % (test concentration not listed); 320,000 tested, 0.6% active; AID 2629; in the data active means inhibition mostly above about 10%, no sharp cut-off; inactive means mostly below about 6.7%;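 further: stock transfer was 7.5 nL into about 10 µL; 0% = median of vehicle wells and 100% = median of positive control wells; one replicate is shown; the record names a cut of 25% in any replicate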
FGF22 binding: binders of recombinant human FGF22 by thermal shift. SYPRO orange fluorescence; percent of sucrose octasulfate shift, DMSO zero. calls only at 9.99 µM. 340,000 tested, 1.5% active;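 active means melting point raised past a set limit in the mean and every replicate; three in four hits are not shown here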
Target sequence (Q9HCT0 whole entry, looked up): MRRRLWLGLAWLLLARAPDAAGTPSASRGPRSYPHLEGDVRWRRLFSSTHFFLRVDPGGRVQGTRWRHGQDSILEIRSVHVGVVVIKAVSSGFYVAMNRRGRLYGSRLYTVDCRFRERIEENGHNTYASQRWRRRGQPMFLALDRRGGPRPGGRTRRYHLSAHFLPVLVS
Beta2AR agonist: activates human beta-2 adrenergic receptor causing internalization; P07550; Am2.2-beta2AR cells, FAP receptor internalization, flow cytometry; reference of the scale not given here; response, % (no concentration beside the values); 340,000 tested, 0.43% active; AID 504454;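 active means response above a set limit, near 3 SD of response in nonfluorescent compounds, cut at about 42% in these data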;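 further: stock transfer was 100 nL into about 11 µL; a reference agonist was the positive control; negative values mostly stem from fluorescent compounds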
Target sequence (P07550 whole entry, looked up): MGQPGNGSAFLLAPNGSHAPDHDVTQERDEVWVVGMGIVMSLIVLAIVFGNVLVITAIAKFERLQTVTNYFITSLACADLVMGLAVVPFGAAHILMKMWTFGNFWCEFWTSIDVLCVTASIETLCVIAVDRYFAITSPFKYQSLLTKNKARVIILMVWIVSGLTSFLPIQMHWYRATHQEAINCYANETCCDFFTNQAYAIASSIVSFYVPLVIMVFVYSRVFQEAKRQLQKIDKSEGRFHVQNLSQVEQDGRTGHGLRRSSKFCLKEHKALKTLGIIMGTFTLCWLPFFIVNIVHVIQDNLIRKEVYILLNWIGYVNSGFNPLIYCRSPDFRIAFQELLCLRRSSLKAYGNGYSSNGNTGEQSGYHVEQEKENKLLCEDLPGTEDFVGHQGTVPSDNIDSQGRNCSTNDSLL
E coli growth: inhibitors of Escherichia coli growth; OD600 absorbance (test concentration not listed); 330,000 tested, 0.21% active; OD600, 23 h; active compounds read low;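 active means OD600 absorbance below the run mean of sample wells minus 3.6 SD, in any replicate, cut at about 0.56 in these data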;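 further: stock transfer was 300 nL into about 60 µL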
UCH37 DUB inh: inhibitors of human deubiquitinating enzyme UCH37 | purified proteasome/UCH37, Ub-AMC cleavage fluorescence | inhibition, % (concentration not given with the values) | 330,000 tested, 0.33% active | AID 588478;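 active means mean of two replicates above 20%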;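 further: 0% = compound-free wells with enzyme and 100% = wells lacking proteasome; stock transfer was 100 nL into about 20 µL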
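Reagent: Ub-AMC substrate; assay system: Proteasome-associated human UCH37 deubiquitinase; controls: no-proteasome and no-compound wells; read-out: % inhibition of Ub-AMC cleavage fluorescence; timing: 30 min preincubation with enzyme, 25 min cleavage at room temperature; signal: AMC fluorescence from Ub-AMC cleavage, excitation 355 nm, emission 460 nm; buffer or medium: Tris-HCl pH 7.4 plus ovalbumin, ATP-MgCl2, DTT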
* hit, by the source's call. Only part of the results is shown; count on the stated rates, not on these rows.

For Cc1ccc([C@@H]2[C@@H]3C(=O)N(C)C(=O)[C@@H]3[C@]3(C)C(=O)N(CCO)CC(=O)N23)o1 the results were ALR inh -4.9, HNF4A DNA FP -4.1, LANA-H2B inh 5.7, FGF22 binding inactive, Beta2AR agonist 4.3, E coli growth 0.756 and UCH37 DUB inh 2.7.
For COC(=O)c1ccc(C(=O)Nc2cc(Cl)ccc2Cl)cc1NC(=O)c1ccccc1C the results were ALR inh 1.0, HNF4A DNA FP 0.0, LANA-H2B inh 0.2, Beta2AR agonist 3.4, E coli growth 0.647 and UCH37 DUB inh -42.7.
Screening O=C(O)c1ccccc1C(=O)c1ccc(Cl)cc1 returned ALR inh -1.0, HNF4A DNA FP -3.2, LANA-H2B inh -0.2, FGF22 binding inactive, Beta2AR agonist -0.6, E coli growth 0.693 and UCH37 DUB inh 0.3.
CN(c1ccccc1)S(=O)(=O)c1cccc(NC(=O)c2ccncc2)c1 was read as ALR inh -4.4, HNF4A DNA FP 1.8, LANA-H2B inh 0.7, FGF22 binding inactive, Beta2AR agonist -11.1, E coli growth 0.681 and UCH37 DUB inh 3.4.
`Cc1ccc(C2C=NN(c3ccccc3)C2=O)cc1` (stereo unspecified) gave ALR inh 48.4, HNF4A DNA FP -3.0, LANA-H2B inh -0.7, Beta2AR agonist 0.2, E coli growth 0.656 and UCH37 DUB inh 0.7.
COc1ccccc1CC(=O)Nc1cc2oc3ccccc3c2cc1OC was read as ALR inh -5.2, HNF4A DNA FP -0.3, LANA-H2B inh 0.5, Beta2AR agonist 12.9, E coli growth 0.673 and UCH37 DUB inh -14.3.
For NC(=O)NCC(c1ccccc1)C1CCCCC1 (stereo unspecified) the results were ALR inh -2.5, HNF4A DNA FP 3.7, LANA-H2B inh -0.6, FGF22 binding inactive, Beta2AR agonist 6.5, E coli growth 0.645 and UCH37 DUB inh -2.1.
Screening O=C(O)CN1C(=O)c2ccc(C(=O)c3ccccc3)cc2C1=O returned ALR inh -1.6, HNF4A DNA FP 0.3, LANA-H2B inh 0.9, FGF22 binding inactive, Beta2AR agonist -2.3, E coli growth 0.621 and UCH37 DUB inh 3.1.
For CCOC(=O)COn1c(=O)c[n+]([O-])c2ccccc21 the results were ALR inh -6.4, HNF4A DNA FP 1.7, LANA-H2B inh 2.8, Beta2AR agonist inactive, E coli growth 0.665 and UCH37 DUB inh -0.8.
For CN(Cc1ccccc1)C(=O)C1CCN(S(=O)(=O)c2cccc3nsnc23)CC1 the results were ALR inh -3.6, HNF4A DNA FP 0.8, LANA-H2B inh 0.9, FGF22 binding inactive, Beta2AR agonist 0.6, E coli growth 0.663 and UCH37 DUB inh 6.7.
`CCn1c(=O)c2cc(C(=O)NCCCOC)sc2c2ccccc21` gave ALR inh 2.3, HNF4A DNA FP -1.2, LANA-H2B inh 4.5, FGF22 binding inactive, Beta2AR agonist -7.1, E coli growth 0.694 and UCH37 DUB inh -212.0.
Screening O=C1CC(c2ccc(OCCCCCOc3ccc(C4CC(=O)NC4=O)cc3)cc2)C(=O)N1 (stereo unspecified) returned ALR inh -5.0, HNF4A DNA FP -0.8, LANA-H2B inh -1.6, FGF22 binding inactive, Beta2AR agonist 13.3, E coli growth 0.687 and UCH37 DUB inh 1.0.
For CCN1C(=O)[C@H]2[C@H]3CN=C(SCc4ccc(C)cc4)N3[C@@](C)(C(=O)OC)[C@H]2C1=O the results were HNF4A DNA FP 1.4, FGF22 binding inactive, Beta2AR agonist -4.2, E coli growth 0.698 and UCH37 DUB inh -0.8.
For CCOC(=O)c1sc(=NC(=O)c2ccccc2Br)n(C)c1C the results were ALR inh -0.2, HNF4A DNA FP -0.7, LANA-H2B inh -1.9, FGF22 binding inactive, Beta2AR agonist -6.0, E coli growth 0.676 and UCH37 DUB inh -11.2.
`CCSc1ccccc1C(=O)N1CCN(c2ccccc2F)CC1` gave ALR inh 1.7, HNF4A DNA FP 1.1, LANA-H2B inh 1.6, Beta2AR agonist -8.1, E coli growth 0.682 and UCH37 DUB inh 3.2.
Screening CCN(C(=O)c1ccc(N2CC3CC(C2)c2cccc(=O)n2C3)c(NC(=O)c2ccncc2)c1)c1cccc(C)c1 (stereo unspecified) returned ALR inh 4.9, HNF4A DNA FP -1.6, LANA-H2B inh -4.3, FGF22 binding inactive, Beta2AR agonist 8.5, E coli growth 0.67 and UCH37 DUB inh 2.0.
For O=C(C[n+]1ccccc1)Nc1ccc(Oc2ccccc2)cc1 the results were ALR inh -3.9, HNF4A DNA FP 5.5, LANA-H2B inh -6.7, FGF22 binding inactive, Beta2AR agonist 2.5, E coli growth 0.638 and UCH37 DUB inh 5.3.
CC(=O)N1CCN(CCS(=O)(=O)c2ccc(Br)cc2)CC1 was read as ALR inh 6.6, HNF4A DNA FP 1.6, LANA-H2B inh 0.8, FGF22 binding inactive, Beta2AR agonist 8.7, E coli growth 0.708 and UCH37 DUB inh 4.8.
OC1(c2ccccc2F)CCN(Cc2nnc(-c3ccccc3)o2)CC1 was read as ALR inh 4.8, HNF4A DNA FP 0.8, LANA-H2B inh -1.6, Beta2AR agonist -4.7, E coli growth 0.717 and UCH37 DUB inh -0.9.
For CC(C)[C@@H]1CC[C@@H](C)C[C@H]1OC(=O)C[n+]1cc(-c2ccc(Cl)cc2)n2c1CCCCC2 the results were ALR inh -13.3, HNF4A DNA FP 0.7, LANA-H2B inh 5.8, FGF22 binding inactive, Beta2AR agonist 1.9, E coli growth 0.598 and UCH37 DUB inh 4.7.

The final two records of the section before are carried over, then new ones follow.
OC1(c2ccccc2F)CCN(Cc2nnc(-c3ccccc3)o2)CC1 was read as ALR inh 4.8, HNF4A DNA FP 0.8, LANA-H2B inh -1.6, Beta2AR agonist -4.7, E coli growth 0.717 and UCH37 DUB inh -0.9.
For CC(C)[C@@H]1CC[C@@H](C)C[C@H]1OC(=O)C[n+]1cc(-c2ccc(Cl)cc2)n2c1CCCCC2 the results were ALR inh -13.3, HNF4A DNA FP 0.7, LANA-H2B inh 5.8, FGF22 binding inactive, Beta2AR agonist 1.9, E coli growth 0.598 and UCH37 DUB inh 4.7.
Screening Cc1ccc(C(=O)NC(=S)NCc2ccco2)cc1 returned ALR inh 41.8, HNF4A DNA FP -4.2, LANA-H2B inh 14.3, FGF22 binding inactive, Beta2AR agonist -9.7, E coli growth 0.67 and UCH37 DUB inh 2.0.
`O=C1NC(c2ccc(Br)cc2)Nc2ccccc21` (stereo unspecified) gave ALR inh -1.2, HNF4A DNA FP 0.3, LANA-H2B inh 2.5, FGF22 binding inactive, Beta2AR agonist 1.9, E coli growth 0.622 and UCH37 DUB inh -311.8.
CC(=O)c1c(C)[nH]c(C2=NNC(=NCc3ccccc3)SC2)c1C was read as ALR inh -5.6, HNF4A DNA FP 5.2, LANA-H2B inh -0.7, Beta2AR agonist 7.2, E coli growth 0.608 and UCH37 DUB inh 6.0.
CCc1ccc(C(N)=S)cc1 was read as ALR inh 0.5, HNF4A DNA FP -2.5, LANA-H2B inh -2.0, FGF22 binding inactive, Beta2AR agonist -0.6, E coli growth 0.665 and UCH37 DUB inh 0.2.
`O=C(NCCCN1CCOCC1)c1ccc2c(=O)n(Cc3cccc(Br)c3)c(=S)[nH]c2c1` gave ALR inh -19.2, HNF4A DNA FP 0.6, LANA-H2B inh 1.7, Beta2AR agonist 2.9, E coli growth 0.665 and UCH37 DUB inh 0.6.
Screening Cc1cccc(CCN2CCN=C2Nc2ccccc2)c1 returned ALR inh -5.9, HNF4A DNA FP -4.2, LANA-H2B inh -1.4, FGF22 binding inactive, Beta2AR agonist 2.4, E coli growth 0.703 and UCH37 DUB inh 2.4.
Screening CCOC(=O)N1CCC(NC(=O)CN2C(=O)CSc3ncccc32)CC1 returned ALR inh 34.4, HNF4A DNA FP 1.3, LANA-H2B inh -8.4, FGF22 binding inactive, Beta2AR agonist -1.2, E coli growth 0.738 and UCH37 DUB inh -0.3.
For CCCC(CCC)=NNc1ccc(S(=O)(=O)Nc2ccccc2OC)cc1[N+](=O)[O-] the results were ALR inh -7.0, HNF4A DNA FP -0.3, LANA-H2B inh -2.1, Beta2AR agonist -4.1, E coli growth 0.703 and UCH37 DUB inh 2.3.
For O=C(CNC(=O)c1ccccc1F)OCc1csc(-c2ccccc2)n1 the results were ALR inh 98.6*, HNF4A DNA FP -1.3, LANA-H2B inh -2.0, FGF22 binding inactive, Beta2AR agonist 5.5, E coli growth 0.682 and UCH37 DUB inh -1.1.
Screening O=[N+]([O-])c1cc(S(=O)(=O)Nc2ccccc2)ccc1NCc1ccccc1 returned ALR inh 0.2, HNF4A DNA FP -3.2, LANA-H2B inh 0.4, FGF22 binding inactive, Beta2AR agonist 1.7, E coli growth 0.684 and UCH37 DUB inh 1.4.
Screening O=C(CNC(=O)C1CCCC1)Nc1ccccc1Br returned ALR inh 2.8, HNF4A DNA FP 3.1, LANA-H2B inh 6.9, FGF22 binding inactive, Beta2AR agonist -0.6, E coli growth 0.651 and UCH37 DUB inh 5.3.
Cc1ccc2onc(CC(=O)O)c2c1 was read as ALR inh -21.3, HNF4A DNA FP -0.8, LANA-H2B inh -3.2, Beta2AR agonist 1.3, E coli growth 0.702 and UCH37 DUB inh 2.1.
Screening CC(=O)N1CN(CCCn2ccnc2)Cc2c1sc1c2CCCC1 returned ALR inh -3.1, HNF4A DNA FP 0.9, LANA-H2B inh -7.2, Beta2AR agonist -0.5, E coli growth 0.749 and UCH37 DUB inh 3.0.
`O=C(NCCc1ccc(Cl)cc1)C1CCN(S(=O)(=O)c2cccs2)CC1` gave ALR inh -18.3, HNF4A DNA FP 1.1, LANA-H2B inh 8.9, Beta2AR agonist -13.0, E coli growth 0.687 and UCH37 DUB inh 4.1.
`O=C(CSc1ccc(Br)cc1)NCC(c1cccs1)N1CCOCC1` (stereo unspecified) gave HNF4A DNA FP 1.6, FGF22 binding inactive, Beta2AR agonist -1.2, E coli growth 0.726 and UCH37 DUB inh -2.3.
For O=C(CS(=O)(=O)c1ccccc1Cl)N1CCOCC1 the results were ALR inh 0.0, HNF4A DNA FP -0.7, LANA-H2B inh -3.1, FGF22 binding inactive, Beta2AR agonist 1.4, E coli growth 0.724 and UCH37 DUB inh 2.1.
`COc1ccccc1C(=O)N/C(=C/c1ccco1)C(=O)Nc1cccc(C(=O)O)c1` gave ALR inh 43.5, HNF4A DNA FP -8.4, LANA-H2B inh -1.1, FGF22 binding inactive, Beta2AR agonist -4.9, E coli growth 0.684 and UCH37 DUB inh 7.3.
`COC(=O)N(C)c1ccccc1C(=O)N1CCOCC1` gave ALR inh -6.9, HNF4A DNA FP 1.2, LANA-H2B inh 2.4, Beta2AR agonist 5.9, E coli growth 0.718 and UCH37 DUB inh 3.9.
Screening Cc1ccc(-n2nc(C)c(C3(O)C(=O)N(C(C)C)c4ccccc43)c2N)cc1 (stereo unspecified) returned ALR inh -3.4, HNF4A DNA FP 0.7, LANA-H2B inh -0.9, Beta2AR agonist -2.1, E coli growth 0.691 and UCH37 DUB inh -0.1.
Screening CCOc1ccc(-c2c(C(=O)N/N=C(\C)c3ccco3)nnn2-c2nonc2N)cc1 returned ALR inh 1.2, HNF4A DNA FP 1.1, LANA-H2B inh 1.0, FGF22 binding inactive and Beta2AR agonist 5.0.
For Cc1ccc(S(=O)(=O)N2CCN(c3ccc(S(=O)(=O)N4CCOCC4)cn3)CC2)cc1 the results were ALR inh 2.7, HNF4A DNA FP -0.8, LANA-H2B inh 0.8, Beta2AR agonist 16.7, E coli growth 0.701 and UCH37 DUB inh 0.2.
CCOC(=O)COc1cc(-n2c(=S)[nH]c3cc(OC)c(OC)cc3c2=O)c(Cl)cc1Cl was read as ALR inh 3.7, HNF4A DNA FP 3.8, LANA-H2B inh 1.1, FGF22 binding inactive, Beta2AR agonist 31.9, E coli growth 0.735 and UCH37 DUB inh 2.3.
Screening CS(=O)(=O)N1CCN(Cc2ccc([N+](=O)[O-])cc2)CC1 returned ALR inh -5.4, HNF4A DNA FP -4.2, LANA-H2B inh -2.6, FGF22 binding inactive, Beta2AR agonist 2.4, E coli growth 0.708 and UCH37 DUB inh 4.7.
